FGF22 binding: FGF22 (human) thermal shift binding | 1.5% of 340,000 active | calls only at 9.99 µM | Q9HCT0 | AID 651658 | recombinant FGF22 thermal shift, SYPRO orange fluorescence; percent of sucrose octasulfate shift, DMSO zero;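 active = melting point raised past a set limit in the mean and every replicate; three in four hits are not shown here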
Target sequence (Q9HCT0 whole entry, looked up): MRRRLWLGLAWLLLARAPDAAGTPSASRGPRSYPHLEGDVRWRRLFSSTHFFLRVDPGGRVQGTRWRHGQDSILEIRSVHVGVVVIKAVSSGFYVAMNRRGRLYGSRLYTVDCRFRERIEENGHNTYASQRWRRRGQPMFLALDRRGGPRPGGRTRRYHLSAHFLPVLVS
rRNA inh HTS: selective bacterial rRNA inhibition in E. coli; E. coli WT GFP vs humanized-ribosome RFP mutants, fluorescence, 24 h; stronger effect = lower value; DMSO median 0, no signal -100; GFP signal change (wild-type ribosome), % (test concentration not listed); 1.6% of 350,000 active; AID 720706;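 active = significant combined selectivity score with lowered wild-type GFP, culture density cut under 30%, mutant RFP and density less affected; inactive = any of these conditions unmet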; also: one replicate is shown; some compounds called inactive have numbers as strong as hits
rRNA inh HTS OD600: further read-out of rRNA inh HTS, marked with its call; OD600 change, %; measured here: OD600 growth;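 optical density of the mix in the first replicate; 0 = DMSO median and -100 = no signal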
rRNA inh HTS RFP: also measured in rRNA inh HTS; calls as there; RFP signal change, %; measured here: RFP humanized mutant strains;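 first replicate; 0 = DMSO median and -100 = no signal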
Active calls of the source: *; i = inactive; & = joins results of further samples.

item	Structure	FGF22 binding	rRNA inh HTS
1	O=C(N[C@@H]1CC[C@@H](CCNS(=O)(=O)c2ccc(Cl)cc2)O[C@@H]1CO)c1cccc(F)c1	i	-2
2	C[C@H](CO)N1C[C@H](C)[C@H](CN(C)Cc2ccc(Cl)c(Cl)c2)Oc2ccc(NC(=O)Cc3cn(C)c4ccccc34)cc2C1=O	i	-3
3	O=C(C[C@H]1C=C[C@H](NS(=O)(=O)c2ccc(F)cc2)[C@@H](CO)O1)N1CCC(Cc2ccccc2)CC1	i	-2
4	C[C@@H]1CN([C@@H](C)CO)C(=O)c2cccc(NS(=O)(=O)c3ccc(Cl)cc3)c2O[C@@H]1CN(C)Cc1ccc(Cl)c(Cl)c1	i	5
5	CN(C)C(=O)C[C@H]1C[C@@H]2c3cc(NC(=O)c4ccc5c(c4)OCO5)ccc3O[C@@H]2[C@H](CO)O1	i	0
6	C[C@H]1CN([C@@H](C)CO)C(=O)Cc2cc(NC(=O)Nc3cccc4ccccc34)ccc2O[C@@H]1CN(C)Cc1ccc(Cl)c(Cl)c1	i	4
7	O=C(C[C@@H]1CC[C@@H]2[C@H](COC[C@H](O)CN2C(=O)c2ccc(F)cc2)O1)NCc1cccc(F)c1	i	-2
8	C[C@H]1CN([C@@H](C)CO)C(=O)c2cccc(NC(=O)c3ccc(-c4nccs4)cc3)c2O[C@@H]1CN(C)S(=O)(=O)c1ccccc1	i	0

item	rRNA inh HTS OD600	rRNA inh HTS RFP
1	2	-2.6
2	-9	1.0
3	-32	23
4	0	11
5	-3	-2.8
6	3	0.2
7	-8	-1.8
8	-5	1.3

Shown bar-delimited: entries from further up.
No. | SMILES | FGF22 binding | rRNA inh HTS | rRNA inh HTS OD600 | rRNA inh HTS RFP
2 | C[C@H](CO)N1C[C@H](C)[C@H](CN(C)Cc2ccc(Cl)c(Cl)c2)Oc2ccc(NC(=O)Cc3cn(C)c4ccccc34)cc2C1=O | i | -3 | -9 | 1.0
1 | O=C(N[C@@H]1CC[C@@H](CCNS(=O)(=O)c2ccc(Cl)cc2)O[C@@H]1CO)c1cccc(F)c1 | i | -2 | 2 | -2.6
6 | C[C@H]1CN([C@@H](C)CO)C(=O)Cc2cc(NC(=O)Nc3cccc4ccccc34)ccc2O[C@@H]1CN(C)Cc1ccc(Cl)c(Cl)c1 | i | 4 | 3 | 0.2

Remaining list, next part
item	Structure	FGF22 binding	rRNA inh HTS
9	CS(=O)(=O)Nc1ccc2c(c1)[C@@H]1C[C@@H](CC(=O)NCCN3CCCCC3)O[C@@H](CO)[C@@H]1O2	i	4
10	CC(C)[C@@H]1COCc2cn(nn2)CC[C@H](Cc2ccccc2)C(=O)N1	i	3
11	C[C@@H]1CCCCO[C@H](CN(C)C(=O)CCCN(C)C)[C@@H](C)CN([C@@H](C)CO)C(=O)c2cc(NC(=O)Nc3ccc(C(F)(F)F)cc3)ccc2O1	i	-38
12	COCC(=O)N1C[C@H](C)[C@H](OC)CN(C)C(=O)c2ccc(NC(=O)c3ccc(OC)cc3)cc2OC[C@H]1C	i	-3
13	Cc1noc(C)c1NC(=O)N(C)C[C@@H]1Oc2c(NC(=O)C3CC3)cccc2C(=O)N([C@@H](C)CO)C[C@H]1C	i	4
14	CN(C)C(=O)c1ccc(-c2ccc([C@H]3[C@H](CO)N4CCCCN(CCC(F)(F)F)C[C@@H]34)cc2)cc1	i	-2
15	CN1c2ccc(C#Cc3cccnc3)cc2[C@H]2[C@H](CCN2C(=O)C2CCCCC2)[C@@H]1CO	i	-3
16	O=C(NCC[C@@H]1CC[C@@H](NS(=O)(=O)c2ccccc2)[C@H](CO)O1)c1cc(Cl)cc(Cl)c1	i	-5

item	rRNA inh HTS OD600	rRNA inh HTS RFP
9	4	-1.4
10	9	-1.7
11	-64	-1.0
12	-2	-0.4
13	13	1.2
14	2	2.4
15	7	5.7
16	-12	8.2

Remaining list, next part.
item	Structure	FGF22 binding	rRNA inh HTS
17	CO[C@@H]1CN(C)C(=O)c2cc(NC(=O)C3CC3)ccc2OC[C@@H](C)N(C(=O)c2cccnc2)C[C@@H]1C	i	2
18	C/C=C/c1ccc2c(c1)O[C@H](CN(C)CC1CCOCC1)[C@@H](C)CN([C@@H](C)CO)S2(=O)=O	i	-4
19	C[C@@H]1CN([C@H](C)CO)S(=O)(=O)c2ccc(-c3cccnc3)cc2O[C@H]1CN(C)C(=O)c1cccc(F)c1	i	-2
20	C[C@H]1CN([C@@H](C)CO)S(=O)(=O)c2ccc(C#Cc3ccccc3F)cc2O[C@H]1CN(C)CC1CCOCC1	i	4
21	Cc1ccccc1S(=O)(=O)N1C[C@@H]2N[C@H](C1)C2c1ccc(-c2cccc(C(=O)N(C)C)c2)cc1 (stereo partly drawn)	i	-3
22	CO[C@@H]1CN(C)C(=O)c2ccc(NC(=O)c3ccc(-c4ccccc4)cc3)cc2OC[C@H](C)NC[C@@H]1C	i	-8
23	C[C@@H]1CN([C@H](C)CO)C(=O)c2cc(NS(=O)(=O)c3ccc(F)cc3)ccc2O[C@@H](C)CCCCO[C@H]1CN(C)Cc1ccncc1	i	-2
24	O=C(C[C@@H]1CC[C@@H]2[C@H](COC[C@H](O)CN2C(=O)c2cccnc2)O1)NCc1ccccc1	i	4

item	rRNA inh HTS OD600	rRNA inh HTS RFP
17	-2	-1.3
18	-8	1.8
19	-8	-0.7
20	-8	2.0
21	16	-1.0
22	15	14
23	-4	-2.9
24	6	-2.7

Remaining list, next part:
item	Structure	FGF22 binding	rRNA inh HTS
25	CNC[C@@H]1OCCCC[C@@H](C)Oc2ccc(NS(=O)(=O)c3cn(C)cn3)cc2C(=O)N([C@H](C)CO)C[C@@H]1C	i	0
26	C[C@H](CO)N1C[C@H](C)[C@H](CN(C)C(=O)Nc2cccc3ccccc23)Oc2ccc(NC(=O)CCC(F)(F)F)cc2C1=O	i	-4
27	COc1ccc(CN(C)C[C@H]2OCCCC[C@H](C)Oc3ccc(NC(=O)Nc4ccc(F)cc4)cc3C(=O)N([C@@H](C)CO)C[C@@H]2C)cc1	i	-44
28	Cc1noc(C)c1NC(=O)Nc1ccc2c(c1)C(=O)N([C@@H](C)CO)C[C@@H](C)[C@@H](CN(C)S(=O)(=O)c1ccc(Cl)cc1)OCCCC[C@H](C)O2	i	-1
29	COc1ccc(S(=O)(=O)Nc2ccc3c(c2)C(=O)N([C@@H](C)CO)C[C@H](C)[C@@H](CN(C)Cc2ccccc2)OCCCC[C@@H](C)O3)cc1	i	0
30	Cc1ccccc1S(=O)(=O)NCC[C@H]1CC[C@@H](NC(=O)Nc2cccc(F)c2)[C@@H](CO)O1	i	-5
31	COc1ccccc1CNC(=O)C[C@H]1CC[C@H]2[C@H](COc3ccc(NC(C)=O)cc3C(=O)N2C)O1	i	2
32	COc1ccc(NC(=O)Nc2cccc3c2O[C@@H](CN(C)C(=O)NC2CCCCC2)[C@H](C)CN([C@@H](C)CO)C3=O)cc1	i	-4

item	rRNA inh HTS OD600	rRNA inh HTS RFP
25	9	-5.5
26	-4	0.8
27	-54	28
28	-7	2.8
29	6	0.0
30	-5	2.4
31	1	-0.1
32	-1	-1.9

Following part:
item	Structure	FGF22 binding	rRNA inh HTS
33	O=C(c1ccncc1)N1CCCCN2[C@H](CO)[C@H](c3ccc(-c4ccccc4)cc3)[C@@H]2C1	i	3
34	C[C@@H]1CN([C@@H](C)CO)C(=O)Cc2cc(NS(=O)(=O)c3ccc(F)cc3)ccc2O[C@H]1CN(C)CC1CC1	i	2
35	C[C@@H]1CN([C@H](C)CO)C(=O)c2cc(NC(=O)Cc3cn(C)c4ccccc34)ccc2O[C@@H]1CN(C)C(=O)Nc1ccccc1	i	3
36	O=C(O)[C@@H]1[C@@H](CO)[C@@H]2Cn3c(cccc3=O)[C@@H]2N1C(=O)NC1CCCC1	i	0
37	CN(C)C(=O)c1ccc(-c2ccc([C@H]3[C@H](CO)N4CCCCN(Cc5cncnc5)C[C@@H]34)cc2)cc1	i	-3
38	CCCNC(=O)N(C)C[C@H]1Oc2cc(-c3cccnc3)ccc2S(=O)(=O)N([C@H](C)CO)C[C@H]1C	i	-4
39	CN1C(=O)c2cc(NC(=O)C3CCOCC3)ccc2OC[C@H]2O[C@@H](CC(=O)NCc3ccc4c(c3)OCO4)CC[C@@H]21	i	1
40	C[C@H](CO)N1C[C@H](C)[C@H](CN(C)C(=O)Nc2ccc(F)cc2)Oc2cc(C#CC3(O)CCCC3)ccc2S1(=O)=O	i	-5

item	rRNA inh HTS OD600	rRNA inh HTS RFP
33	7	1.8
34	2	-0.4
35	2	3.1
36	11	-0.2
37	10	1.3
38	-2	-3.7
39	10	0.0
40	-8	-0.9

The list goes on:
item	Structure	FGF22 binding	rRNA inh HTS
41	C[C@H](CO)N1C[C@H](C)[C@@H](CN(C)C(=O)Nc2ccccc2)Oc2ccc(N(C)C)cc2C1=O	i	2
42	Cc1ccc(S(=O)(=O)N(C)C[C@H]2Oc3ccc(NC(=O)Nc4ccc(C(F)(F)F)cc4)cc3CC(=O)N([C@H](C)CO)C[C@H]2C)cc1	i	7
43	COC(=O)[C@]12C[C@H](CC(=O)N3CCCC3)C(=O)N(Cc3ccc4c(c3)OCO4)C1=C[C@H](C(C)(C)C)O[C@@H]2C	i	-13
44	CC(C)NC(=O)N(C)C[C@@H]1Oc2cc(C#C[C@@H](C)O)ccc2S(=O)(=O)N([C@@H](C)CO)C[C@H]1C	i	2
45	C[C@H](CO)N1C[C@H](C)[C@@H](CN(C)Cc2ccc3c(c2)OCO3)Oc2ccc(NS(=O)(=O)c3cn(C)cn3)cc2CC1=O	i	2
46	N#Cc1ccc(-c2ccc3c(c2)[C@H]2[C@H](CCN2C(=O)Cc2ccccc2)[C@H](CO)N3)cc1	i	-29
47	Cc1noc(C)c1S(=O)(=O)Nc1ccc2c(c1)C(=O)N([C@@H](C)CO)C[C@@H](C)[C@@H](CN(C)C(=O)CCC(F)(F)F)OCCCC[C@@H](C)O2	i	-2
48	CCC(=O)N1[C@@H](CO)[C@@H]2c3ccccc3N(C(=O)CC(F)(F)F)C[C@@H]21	i	6

item	rRNA inh HTS OD600	rRNA inh HTS RFP
41	-1	-1.6
42	7	-0.4
43	-32	2.8
44	4	-2.9
45	5	0.1
46	-46	17
47	-5	-0.2
48	9	-1.3

(more compounds)
item	Structure	FGF22 binding	rRNA inh HTS
49	Cc1ccc(-c2ccc3c(c2)O[C@@H](CN(C)S(C)(=O)=O)[C@@H](C)CN([C@@H](C)CO)S3(=O)=O)cc1	i	-6
50	C[C@@H]1CN([C@H](C)CO)C(=O)c2cc(NC(=O)C3CC3)ccc2O[C@H]1CN(C)S(=O)(=O)c1cccs1	i	0
51	COc1ccc(NC(=O)Nc2ccc3c(c2)C(=O)N([C@H](C)CO)C[C@H](C)[C@@H](CN(C)C(=O)NC2CCCCC2)OCCCC[C@H](C)O3)cc1	i	-2
52	CN1CCCCC(NC(=O)c2ccc(Cl)cc2Cl)C1=O (stereo not drawn)	i	-3
53	CN1C(=O)c2cc(NS(=O)(=O)c3ccc(F)cc3)ccc2OC[C@H]2O[C@H](CC(=O)NCC(F)(F)F)CC[C@@H]21	i	0
54	COc1ccc(S(=O)(=O)Nc2cccc3c2O[C@@H](CN(C)C(=O)Nc2ccc(F)cc2)[C@H](C)CN([C@H](C)CO)C3=O)cc1	i	4
55	O=C(Nc1ccccc1F)N1C[C@@H]2[C@H](c3ccccc31)[C@H](CO)N2C(=O)Cc1cccnc1	i	1
56	C[C@H](CO)N1C[C@H](C)[C@H](CN(C)C(=O)Nc2cccc(F)c2)OCc2cnnn2CCCC1=O	i	14&-3

item	rRNA inh HTS OD600	rRNA inh HTS RFP
49	-22	4.8
50	3	-0.5
51	3	-1.3
52	3	-0.8
53	-1	2.1
54	4	-2.2
55	4	0.6
56	12&0	4.2&0.5

Continuation.
item	Structure	FGF22 binding	rRNA inh HTS
57	CC(=O)N1CCCCN2[C@@H](CO)[C@H](c3ccc(-c4cccc(C(=O)N(C)C)c4)cc3)[C@@H]2C1	i	5
58	C[C@@H]1CN([C@@H](C)CO)C(=O)c2cccc(NC(=O)C3CCOCC3)c2O[C@H]1CN(C)Cc1ccc(Oc2ccccc2)cc1	i	-7
59	CO[C@H]1CC[C@H]2CCOc3c(C#N)cccc3C(=O)N(C)C[C@H](C)C(=O)N(C)C[C@@H]1O2	i	3
60	CN1C(=O)c2cc(NC(=O)Nc3ccccc3Cl)ccc2OC[C@@H]2O[C@@H](CC(=O)O)CC[C@H]21	i	0
61	C[C@H](NC(=O)[C@@H]1N[C@@H]2c3ccc(-c4ccc(C(=O)N(C)C)cc4)c(=O)n3C[C@@H]2[C@H]1CO)c1ccccc1	i	4
62	C[C@@H]1CN([C@H](C)CO)C(=O)Cc2cc(NC(=O)Nc3cccc4ccccc34)ccc2O[C@H]1CN(C)Cc1ccc(C(F)(F)F)cc1	i	2
63	CC(=O)N1[C@@H]2c3cccc(=O)n3C[C@H]1[C@H](CO)[C@H]2C(=O)N1CCc2ccccc2C1	i	-1
64	C[C@H](CO)N1C[C@H](C)[C@@H](CN(C)C(=O)c2ccc(F)cc2)Oc2ncc(C#CCN(C)C)cc2C1=O	i	3

item	rRNA inh HTS OD600	rRNA inh HTS RFP
57	14	-3.8
58	-16	0.9
59	3	-4.0
60	8	-2.0
61	3	-1.0
62	-5	0.4
63	8	-3.3
64	-6	1.1

Some of the compounds tested; the hit share may differ from the screen's.
